Compound activity as filed in PubChem.
hNpr1 antagonist: human Npr1 receptor antagonism; 76,000 compounds, 1.6% hits; Potency, µM (highest dose often 46.3 µM), without a hit: at the highest dose activity change, negative = inhibition, usual class: inhibitors; P16066; AID 1347048; HEK293 hNpr1 GloSensor cGMP, ANP-stimulated luminescence; active = well fitted inhibition curve with a large enough effect; inconclusive = small, poorly fitted or top-dose-only effect; inactive = no such curve, though single readings can be large or run the other way;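 further: nearly all actives have a fitted effect of over 60% in size; nearly all hits also lower the signal before the agonist is added; a reference antagonist and vehicle were the controls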
Target sequence (P16066 whole entry, looked up): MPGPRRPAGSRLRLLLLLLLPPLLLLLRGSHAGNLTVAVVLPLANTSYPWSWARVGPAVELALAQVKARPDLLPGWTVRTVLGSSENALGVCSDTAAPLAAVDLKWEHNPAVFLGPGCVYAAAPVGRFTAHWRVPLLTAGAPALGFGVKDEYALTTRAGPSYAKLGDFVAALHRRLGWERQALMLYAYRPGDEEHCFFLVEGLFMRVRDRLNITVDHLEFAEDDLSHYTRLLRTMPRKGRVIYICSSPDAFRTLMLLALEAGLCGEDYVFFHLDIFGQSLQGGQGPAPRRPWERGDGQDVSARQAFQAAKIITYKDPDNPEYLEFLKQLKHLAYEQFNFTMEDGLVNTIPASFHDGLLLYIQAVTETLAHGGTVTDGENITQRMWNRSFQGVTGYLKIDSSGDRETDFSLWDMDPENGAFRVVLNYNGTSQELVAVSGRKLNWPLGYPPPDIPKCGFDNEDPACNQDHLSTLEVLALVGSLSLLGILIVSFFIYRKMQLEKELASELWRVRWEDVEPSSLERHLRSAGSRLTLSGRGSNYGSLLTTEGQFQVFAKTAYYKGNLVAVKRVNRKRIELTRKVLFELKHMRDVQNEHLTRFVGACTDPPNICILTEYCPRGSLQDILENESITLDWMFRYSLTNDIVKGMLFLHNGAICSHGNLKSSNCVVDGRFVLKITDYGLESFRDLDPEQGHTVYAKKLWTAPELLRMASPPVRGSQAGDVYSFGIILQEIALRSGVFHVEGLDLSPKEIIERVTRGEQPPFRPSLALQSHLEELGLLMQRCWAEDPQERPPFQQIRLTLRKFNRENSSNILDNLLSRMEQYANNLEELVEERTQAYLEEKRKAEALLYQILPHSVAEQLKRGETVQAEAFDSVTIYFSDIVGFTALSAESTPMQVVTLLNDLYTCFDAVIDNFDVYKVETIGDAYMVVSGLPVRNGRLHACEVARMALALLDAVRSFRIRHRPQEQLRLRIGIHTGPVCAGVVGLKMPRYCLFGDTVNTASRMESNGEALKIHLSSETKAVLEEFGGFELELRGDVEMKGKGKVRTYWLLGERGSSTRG
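Compound pre-incubated 30 min at room temperature on GloSensor-loaded HEK293 cells stably carrying hNpr1 and the pGS-40F cGMP biosensor. Stimulation uses hNppA at 0.1 nM final; luminescence is taken at baseline and 20 min post-agonist.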
Active calls of the source: *; ? = inconclusive; & = joins results of further samples; [ ] = another dose, or the depositor's remark. On the % scale 0 is the no-effect control and ±100 the full control effect; potency means the concentration at half of the fitted maximal effect.

SMILES	hNpr1 antagonist
O=C(CCc1c[nH]c2ccccc12)N1CCC(N2CC3CC(C2)[C@H]2CCCC(=O)N2C3)CC1 (stereo partly specified)	-3%
O=C(c1ccc2c(c1)OCO2)N1CCCC(n2cc(-c3nc(-c4ccccc4)no3)nn2)C1 (stereo unspecified)	11µM*
Cc1cccc(C)c1NC(=O)Cn1c(C)cc2nc3n(c(=O)c21)CCCCC3	3%
Fc1ccc(-c2noc([C@@H]3Cc4nc[nH]c4CN3CCCc3ccccc3)n2)cc1Cl	-12%
O=C(CCC[C@@H]1[C@H]2CCCN3CCC[C@@H](CN1C(=O)c1cccnc1)[C@@H]23)NC1CCCCC1	-1%
CCCS(=O)(=O)N1CCC(Cn2c(C)cnc2C2CC2)CC1	4%
CCOc1nccnc1NC1CCN(C(=O)c2cccs2)CC1	-2%
CNC(=O)[C@@H]1CN(C(=O)c2ccc(Br)o2)C[C@H]1c1n[nH]c(C)n1	1%

Additional compounds
SMILES	hNpr1 antagonist
CN(C)[C@@H]1CN(C(=O)CCc2ccccc2)CC[C@]1(O)c1ccccc1	3%
c1ccc(-c2nc3ccncc3[nH]2)nc1	8%[70.6 µM]
Cc1ccc(C(=O)N2CCCCCCNC(=O)[C@@H]3C[C@@H](c4nc(Cc5ccccc5)no4)C[C@@H]32)s1	0%
O=C1NCCCCCCN(C(=O)C2CC2)[C@H]2CCCC[C@@H]12	1%
COc1ccc(C(=O)NC2CCN(c3cnn(Cc4ccccc4)c(=O)c3)CC2)cn1	1%
COc1cccc([S+](=O)([O-])N2CC(Oc3ccc(F)c(C)c3)C2)c1	9%
CCc1nc(-c2c3n(c(=O)n(CC(=O)NCc4cccs4)c2=O)CCCCC3)no1	9%
CC[C@H]1CN(C(=O)c2ccnc(Cl)c2)CC[C@H]1CC(=O)NCc1cccnc1	11%[70.6 µM]

Remaining list, next part
SMILES	hNpr1 antagonist
c1cc(-c2noc(C3CC3)n2)ccc1OC1CNC1	-1%
COCCn1c(=O)n([C@H]2CCCN(C(=O)CC(C)C)C2)c2ncccc21	9%
O=C1N(c2ccccc2)C[C@H]2CN(Cc3ncc[nH]3)CCN12	8%[70.6 µM]
CCOC(=O)CCNC(=O)N1CCC(Oc2ncccc2C(=O)N(C)C)C1 (stereo unspecified)	4%
CCCN1C(=O)C(CC(=O)NC2CCCC2)Sc2ncccc21 (stereo unspecified)	5%
Cn1nc(C(=O)N2CCC(N3C(=O)C(O)C34CCCCC4)CC2)c2ccccc21 (stereo unspecified)	2%
O=C(NCc1ccccc1)N1CCOC(CN(CC2CC2)C(=O)c2cccc(F)c2)C1 (stereo unspecified)	0%
Cc1nc(-c2ccccc2OC2CN(S(=O)(=O)c3c(C)nn(C)c3C)C2)no1	9%

(listing goes on)
SMILES	hNpr1 antagonist
Cc1ccccc1-n1nc(C)c(CCC(=O)NCC2CC2)c1Oc1cccc(F)c1	-13%
CCC(=O)N1CCC2(CC1)CC(N1CCN(c3ccccn3)CC1)CCO2 (stereo unspecified)	1%
O=C(CN1C(=O)NC2(CCCCC2)C1=O)NCc1cccc(Br)c1	9%
CCCN(CC1CC1)C(=O)C1CCc2ncc(-c3ccc(F)cc3)n2C1 (stereo unspecified)	?
CCN1C(=O)CN(C(=O)c2ccc(OC)nc2)CC12CCOCC2	3%
Cc1ccc2c(c1)nc1n2[C@@H](CNCc2cnn(C)c2)COC1	6%[70.6 µM]
CC(C)c1noc(-c2cn(C3CCN(C(=O)c4cccc(C(F)(F)F)c4)C3)nn2)n1 (stereo unspecified)	?
CC(C)N1C[C@H](O)C[C@H]1c1nnc2n1CCN(C(=O)c1ccc3ncccc3c1)CC2	2%

Structures listed above marked active in hNpr1 antagonist.
SMILES	hNpr1 antagonist
O=C(c1ccc2c(c1)OCO2)N1CCCC(n2cc(-c3nc(-c4ccccc4)no3)nn2)C1 (stereo unspecified)	11µM*

Next section.
SMILES	hNpr1 antagonist
COc1ccc2[nH]c3c(c2c1)CCNC31CCN(C(=O)C2CC=CC2)CC1	4%
O=[S+]([O-])(Nc1nncs1)c1ccc2c(c1)OCCN(Cc1nccs1)C2	1%[70.6 µM]
Cc1ccc(CNC(=O)c2cc3c(N(C)Cc4ccccc4)nc(C)cn3n2)cc1	7%
CN(C)C[C@@H]1CN(C)C[C@H]1NC(=O)c1cc(F)ccc1F	-2%
CCCCS(=O)(=O)N1CCc2nc(N3CCc4ccccc4C3)[nH]c(=O)c2CC1	-2%
CCCOc1ccccc1CCNC(=O)CC1C(=O)N(C)C(=O)N1C (stereo unspecified)	7%
COC(=O)N1CCC(c2nn(-c3ccc(Cl)cc3)c(=O)[nH]2)CC1	-5%[70.6 µM]
C(=C\c1ccccc1)/CN1CCN(c2ncncn2)CC1	-30%

Other entries follow:
SMILES	hNpr1 antagonist
CC(C)CNC(=O)C(NC(=O)c1ccccc1Cl)C1CCN(C(=O)c2ccc(Cl)cc2)CC1 (stereo unspecified)	-1%
O=C1CCN(S(=O)(=O)c2ccc3c(c2)CCC3)CCCC(c2nc(-c3cnccn3)no2)CCN1 (stereo unspecified)	-9%
CN(C)c1cccc(Oc2nnnn2[C@H]2CO[C@H]3[C@@H]2OC[C@@H]3NC(=O)CC2(CC(=O)O)CCCC2)c1	1%
O=C(CCn1cncn1)N1CCC(c2nccn2Cc2cccnc2)CC1	3%
Cc1ccc(C2Cn3cnc(C(=O)N4CCC(C(=O)NCCC(C)C)CC4)c3CO2)cc1 (stereo unspecified)	3%
Cc1cc2nc3n(c(=O)c2n1CC(=O)NC1CCc2ccccc21)CCCCC3 (stereo unspecified)	2%
COc1ccc(CCC(=O)N2CCCCCCNC(=O)[C@@H]3C[C@@H](c4nc(C(C)C)no4)C[C@@H]32)cc1	-13%
CCN(Cc1cnn(CC)c1)C(=O)c1ccc(N2CC3CC(C2)[C@H]2CCCC(=O)N2C3)nc1 (stereo partly specified)	-2%

Single entries from the list:
hNpr1 antagonist with CCOC(=O)CCNC(=O)N1CCC(Oc2ncccc2C(=O)N(C)C)C1 (stereo unspecified) → 4%
hNpr1 antagonist with Cc1ccc(CNC(=O)c2cc3c(N(C)Cc4ccccc4)nc(C)cn3n2)cc1 → 7%

(cont.)
SMILES	hNpr1 antagonist
Cc1cn2nnc(C(=O)NCc3ccc(OC(C)C)cc3)c2c(=O)[nH]1	-29%
NC(=O)NCC(=O)N1CCC2(CCC(=O)N(Cc3ccccn3)C2)CC1	4%
Cc1ccccc1-n1cc(-c2ccnc(NC(C)Cc3ccncc3)n2)cn1 (stereo unspecified)	?
O=C(c1cn[nH]c1)N1C[C@@H](COCC2CC2)[C@H](c2ccncc2)C1	-1%
CCOCCOC1CCN(C(=O)Cc2cccnc2)CC1	-5%
O=C(CCC[C@@H]1[C@H]2CCCN3CCC[C@@H](CN1C(=O)c1cc(F)ccc1F)[C@@H]23)NCC1CC1	-5%
Cn1cc(CC(=O)N2CCCCC(N)C2)c2ccccc21 (stereo unspecified)	-1%
CC(=O)N1CCC2(CC1)CC(Cc1ccccc1)CCO2 (stereo unspecified)	-18%

(listing goes on)
SMILES	hNpr1 antagonist
CC[C@H]1CN(Cc2ccncc2)CC[C@H]1CC(=O)N1CCC(C(=O)OC)CC1	3%[70.6 µM]
Cc1ccsc1C(=O)N1CCC(c2nn(C)c3c2COCC3)CC1	7%
COc1ccc(C(=O)NC2CCN(c3cc(-c4ccc(F)cc4)[nH]n3)C2)cc1 (stereo unspecified)	-13%
CC(C)(C)C(=O)N1CCC(F)(c2nc(-c3ccncc3)no2)CC1	-20%
Nc1ncccc1CN1CCc2c(n(Cc3ccccc3)n(-c3ccccc3)c2=O)C1	-14%[70.6 µM]
CCN1C(=O)C2CC3(CCN(S(=O)(=O)c4ccc5c(c4)CCC5)CC3)CN2C1=O (stereo unspecified)	0%
O=C(c1cc(C2CC2)[nH]n1)N1CCc2c(nc(-c3ccccn3)[nH]c2=O)C1	2%
COc1ccc(OC)c(CNC(=O)CC2CCOCC2)c1	5%

(continued)
SMILES	hNpr1 antagonist
Cc1ccc(C(=O)N2CCCC3(C2)NC(=O)N(Cc2ccc(Cl)cc2)C3=O)cc1F (stereo unspecified)	8%
OC1(CN2CCCCC2)CCN(c2cccc(C(F)(F)F)n2)C1 (stereo unspecified)	4%
COc1ccc(CN(C(=O)c2ccco2)c2ccc(CC(=O)NCCc3ccccc3)cc2)cc1	-26%
COc1ccc2[nH]c3c(c2c1)CCNC31CCN(C(=O)c2ccncc2)CC1	10%
CCN(Cc1ccccc1)C(=O)CCc1nc(C2CCCN2S(C)(=O)=O)no1 (stereo unspecified)	0%
Cn1cccc1C(=O)N1CC(Oc2cccc(-c3nc(-c4ccccc4)no3)c2)C1	-5%
Cc1noc(-c2cccn3c(CNC(=O)c4ccc(C(C)(C)C)cc4)nnc23)n1	-21%
CC1(C)[C@H]2CC[C@@H](CNC(=O)c3ccccc3Cl)[C@@H]1C2	-16%[70.6 µM]

Three entries drawn at random from those above, as already listed:
SMILES	hNpr1 antagonist
OC1(CN2CCCCC2)CCN(c2cccc(C(F)(F)F)n2)C1 (stereo unspecified)	4%
COc1ccc(CN(C(=O)c2ccco2)c2ccc(CC(=O)NCCc3ccccc3)cc2)cc1	-26%
CC1(C)[C@H]2CC[C@@H](CNC(=O)c3ccccc3Cl)[C@@H]1C2	-16%[70.6 µM]

The list continues.
mol,hNpr1 antagonist
CCCc1nnc(C[C@@H]2C[C@@H](C(C)C)[C@H](CN3CCC(O)CC3)C=C2C)o1,3%[70.6 µM]
COC(=O)C1CCN(C(=O)CC[C@H]2CNC(=O)[C@H]3NCC[C@H]3N2C)CC1,0%[70.6 µM]
OCc1cc(CC2(NC3CCC3)COC2)no1,3%[70.6 µM]
Cc1ccc(CN2CCN(c3nc(C)ccc3C#N)CC2CCO)cc1 (stereo unspecified),-3%
CC(C)C(=O)N1Cc2ccccc2OC2(CCN(C(C)C)CC2)C1,-4%
COCc1nc(C2CC(Nc3ccnc4cc(Cl)ccc34)C2)cc(=O)[nH]1 (stereo unspecified),-23%&-21%
c1cc(-c2nc(C3CCOC3)nn2C2CCCCC2)co1 (stereo unspecified),0%
Cc1noc(-c2ccc3c(c2)OCO3)c1C(=O)NC(C)CCc1ccccc1 (stereo unspecified),-15%
CCCCCCN(CCC(=O)NCCc1ccccc1)C(=O)c1cc(C)oc1C,16µM*
Cc1cccc(NC(=O)c2cc3n(n2)CC(c2ccc4c(c2)OCO4)OC3)c1 (stereo unspecified),-25%
O=C1CC(c2ccccc2)N(C(=O)C2CC2)CCCN(C(=O)Cc2cccnc2)CCN1 (stereo unspecified),-1%
CCCCN(C)C(=O)Cn1nc(C)c2sc(-c3ccccc3)nc2c1=O,7%
COCC(=O)N[C@H]1C[C@@H](Cc2cc(CN(C)C)on2)C1(C)C,0%[70.6 µM]
CC(C)OC(=O)NN(C(=O)OC(C)C)[C@@H]1C=C(C(=O)N[C@H](C)C(N)=O)C[C@@H](O)[C@H]1O,-1%[70.6 µM]
O=C(O)c1ccc(-c2ncc3cnc(C4=CCOCC4)cn23)cc1,3%[70.6 µM]
CCc1nc(C)ccc1OCC(=O)N1Cc2[nH]cnc2CC1C(=O)O (stereo unspecified),2%
O=C(c1cc[n+]([O-])cc1)N1CCCC(CO)(CCCc2ccccc2)C1 (stereo unspecified),-1%
CC[C@H]1CN(S(=O)(=O)c2c(C)noc2C)CC[C@H]1CC(=O)NCc1cccc2ccccc12,-19%
CC(C)(C)CCN1CCCC(COc2ccccc2C(=O)NC2CC2)C1 (stereo unspecified),-9%
O=C(Cn1nc2c(cc1=O)CCCC2)N1CCN(c2ccc(Cl)cc2)CC1,1%
COc1c(C)cnc(Cn2c(-c3ccccc3)nc(C)c(CCO)c2=O)c1C,1%
OCc1cc(CC2(NCc3ccccc3O)COC2)no1,6%[70.6 µM]
Cc1cccc(N(C)C(=O)Cn2c(=O)n(-c3cccc(C)c3)c(=O)c3c2cc(C)n3C)c1,-1%
COCC(=O)N1CCC(C(=O)NCc2cc(-c3cccc(F)c3)no2)CC1,4%
COc1ccc(Cl)cc1NC(=O)C[C@H]1NC(=O)c2ccccc2NC1=O,-8%
O=C(NCc1c[nH]c2ncccc12)c1cncc(Br)c1,-1%&6%[70.6 µM]
O=C(C1CC(=O)N(C2CC2)C1)N1CCC(Oc2cccnc2)CC1 (stereo unspecified),3%
COC(=O)N1CCc2nc(-c3ccc(Cl)cc3)nc(-c3ccccc3)c2C1,4%
O=C1NCCOCCN(C(=O)Cc2cccc(F)c2)[C@H]2CCC[C@@H]12,-8%
O=C(c1ccoc1)N1CCC(c2nc(C3CCOCC3)no2)C1 (stereo unspecified),0%

Next section.
mol,hNpr1 antagonist
O=C1[C@H]2CN(Cc3cccc(Cl)c3F)C[C@H]2C(=O)N1Cc1ccc2c(c1)OCO2,-22%
COc1ccc(N2C(=O)CSC23CCN(C(=O)c2ccccc2Br)CC3)cc1,0%
COC[C@H]1CCCN1C(=O)C(C)[C@@H]1CC[C@@]2(C)CC[C@H](NC(C)=O)[C@@H](C)[C@@H]2[C@H]1O (stereo partly specified),-1%[70.6 µM]
O=C(N[C@@H]1C[C@H](Cn2cc(-c3cccnc3)nn2)[C@@H](O)[C@H]1O)c1ccccc1,4%
O=C(N1C[C@@H](CO)[C@H](c2ccccn2)C1)C1(c2ccccc2)CCCC1,1%
C[C@@H]1CN(C(=O)C2CCS(=O)(=O)CC2)C[C@]1(C)O,2%
COC[C@H]1CCCN1C(=O)C[C@@H]1C[C@H]2O[C@H](CNC(=O)N[C@@H](C)c3ccccc3)[C@@H](O)[C@H]2O1,-16%

Reformatted field by field: entries from further up
Molecule: OC1(CN2CCCCC2)CCN(c2cccc(C(F)(F)F)n2)C1 (stereo unspecified)
  hNpr1 antagonist: 4%

Molecule: COc1ccc(CN(C(=O)c2ccco2)c2ccc(CC(=O)NCCc3ccccc3)cc2)cc1
  hNpr1 antagonist: -26%

These rows are one share of the data, so the mix of outcomes need not match the whole.
